Screens as filed in PubChem.
LANA-nucl inh = inhibitors of KSHV LANA-nucleosome binding, primary screen, biochemical, fluorescence polarization, FITC-LANA1-23, chicken nucleosomes; FITC-LANA1-23 / chicken nucleosome fluorescence polarization; stronger effect = lower value; z-score (test concentration not listed); actives 0.3% (n = 51,000);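 active = both repeat wells score below -2 in polarization z-score versus plate sample wells, excluding overly bright wells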;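 note: 100 nL library stock added to about 30 µL; numbers are from one replicate; some results filed as inactive read as strong as hits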
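Assay system: FITC-LANA peptide and chicken nucleosomes; input: 240 nM purified chicken nucleosomes (480 nM peptide binding sites), final; also added: 50 nM FITC-LANA1-23 probe; medium: TEN-BT buffer, pH 7.5; doses: pin-transferred compound, 100 nL; times: 10–45 min, room temperature; technique: fluorescence polarization; replication: duplicates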
Ab BasE inh = BasE siderophore enzyme inhibitors, primary screen, biochemical, Acinetobacter baumannii ATCC 17978, fluorescence polarization | purified BasE, fluorescence polarization binding displacement | inhibition, % (test concentration not listed) | AID 485350, 2010 | actives 0.1% (n = 84,000);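 active = both replicates above 25% with normal brightness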;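 note: 0% = negative plate control signal and 100% = positive plate control signal; stock transfer was 100 nL into about 30 µL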
Starred values were filed as active, the others as inactive; . = not tested or not shown; & = joins results of further samples. Some of the compounds tested; count on the stated rates, not on these rows.

SMILES | LANA-nucl inh | Ab BasE inh
CC1CN(C(=O)c2cccc(S(=O)(=O)N3CCOCC3)c2)C(=NC2CCCCC2)S1 (stereo not given) | . | -12
O=C(Nc1ccc(S(=O)(=O)NCc2ccco2)cc1)c1ncoc1-c1ccc(Cl)cc1 | -0.83 | 1.4
COC(=O)c1nn(-c2ccc(OC)cc2)c(=O)c2c(N)sc(C)c12 | 0.53 | -0.3
CCOC(=O)c1c(-c2ccc(C)o2)csc1NC(=O)COC(=O)C12CC3CC(CC(O)(C3)C1)C2 | . | 3.1
Clc1ccc(Sc2cccc(Cl)c2Cn2cccc2)cc1 | . | 0.4
O=C(CSc1ccc2nnc(-c3cccnc3)n2n1)c1ccccc1 | 0.99 | 1.3
Cc1sc2ncnc(Sc3nnc(CN4CCCC4=O)o3)c2c1C | . | 1.8
O=C(CN1CCN(c2nc3ccccc3s2)CC1)Nc1ccc2c(c1)OCO2 | 0.7 | 2.6
Cc1cccc(-c2nc(CNC(=O)c3ccco3)cs2)c1 | -0.55 | 0.4
CN(C)/N=C/C=C1\CCC(C(=O)Nc2ccccc2)=C1N1CCOCC1 | . | -1.2
N#CC1(NC(Cc2ccccc2)c2ccccc2)CCCCCC1 (stereo not given) | . | -3.1
CC(=NCc1ccc2c(c1)OCO2)C1=C(O)c2ccccc2C1=O | . | 4.0
NNC(=O)CCCc1nc2ccccc2s1 | -0.6 | -0.6
CCCCCC1C(=O)CCC1CC(=O)OC (stereo not given) | 0.92 | 0.7
COC(=O)CC1=NN(c2nc3ccccc3[nH]2)C(=O)C1 | 0.33 | 3.3
COc1cc2c3cc1Oc1cc(ccc1O)C[C@@H]1c4c(cc(OC)c(O)c4Oc4ccc(cc4)C[C@@H]3N(C)CC2)CC[N+]1(C)C | 0.14&0.12 | .
O=C(/C=C/c1ccco1)NC12CC3CC(CC(C3)C1)C2 | . | 1.3
COc1ccc(C(=O)CN2C=NS(=O)(=O)c3ccccc32)cc1 | 0.8 | 2.1
Cc1cccc(OCCn2cc(/C=N/n3cnnc3)c3ccccc32)c1 | 0.34 | -0.5
CN(C)/C(=N\O)c1nonc1N | -0.97 | 1.2

An excerpt from above in order of length of the SMILES, lowest first:
SMILES | LANA-nucl inh | Ab BasE inh
Clc1ccc(Sc2cccc(Cl)c2Cn2cccc2)cc1 | . | 0.4
Cc1cccc(-c2nc(CNC(=O)c3ccco3)cs2)c1 | -0.55 | 0.4
Cc1sc2ncnc(Sc3nnc(CN4CCCC4=O)o3)c2c1C | . | 1.8
O=C(CSc1ccc2nnc(-c3cccnc3)n2n1)c1ccccc1 | 0.99 | 1.3
CC(=NCc1ccc2c(c1)OCO2)C1=C(O)c2ccccc2C1=O | . | 4.0
CN(C)/N=C/C=C1\CCC(C(=O)Nc2ccccc2)=C1N1CCOCC1 | . | -1.2

Following part:
SMILES | LANA-nucl inh | Ab BasE inh
Cc1ccc(Nc2nnc(SCc3nc4sc(C(=O)O)c(C)c4c(=O)[nH]3)s2)cc1C | . | 3.9
Cc1ccsc1/C=N/NC(=O)Cc1cc(=O)[nH][nH]1 | -0.33 | 4.3
COc1cc(C(=O)OC(C)C(=O)N2CCC(C)CC2)cc(CN2C(=O)c3ccccc3C2=O)c1OC (stereo not given) | . | 1.0
CCN(Cc1ccccc1)C(=O)c1ccc(C)cc1 | -0.74 | 0.3
Cc1ccccc1NC(=S)N(C(C)C)C1CCN(C(C)C)CC1 | -0.75 | 4.1
COc1ccc(C2C(C#N)=C(C)NC(C)=C2C#N)c(OC)c1 | . | -1.2
O=C(O)COc1ccc(-c2nnn(Cc3ccc(Cl)cc3Cl)n2)cc1 | -0.23 | 4.2
Cc1ccc2onc(CNC(=O)NCCCN3CCOCC3)c2c1 | 0.36 | 2.2
CO/N=C(\C(=O)Sc1nc2ccccc2s1)c1csc(N)n1 | -0.94 | 1.3
COc1ccc(C2C3C(=O)NC(=O)C3ON2c2ccccc2)cc1 (stereo not given) | . | -1.8
CN(Cc1ccccc1)C(=O)c1ccccc1C(=O)N1CCN(c2ncccn2)CC1 | . | -1.6
Cn1c(CC(=O)Nc2ccccc2F)nnc1SCC(=O)NC1=NCCS1 | 0.85 | -1.7
CC(=O)NC1C(=O)N=C(SCC(=O)Nc2cccc3ccccc23)NC1=O (stereo not given) | -1.3 | 0.0
Nc1nonc1C(=O)N/N=C/c1ccccc1 | -0.22 | 2.9
COC(=O)C1CC(=O)N(c2ccccc2)C1 (stereo not given) | -0.43 | 0.1
CC1(C)C/C(=N\O)c2cc3c(nc2C1)CCCC3 | 0.47 | 3.1
CN1CCN(C(=O)NCC23CC4CC(CC(C4)C2)C3)CC1 | . | -3.9
Cc1ccc2nc(SC3CCCCC3=O)[nH]c2c1 (stereo not given) | . | -4.6
Cc1ccc(C)c(C(=O)CSc2nnc(-c3cccs3)n2CC2CCCO2)c1 (stereo not given) | . | -0.6
Fc1ccc(CN2CCc3nc(Nc4ccc(F)cc4)ncc3C2)cc1 | 0.13 | -0.1

A different layout for some results above:
> COC(=O)C1CC(=O)N(c2ccccc2)C1 (stereo not given)
  LANA-nucl inh = -0.43; Ab BasE inh = 0.1
> Cc1ccc2onc(CNC(=O)NCCCN3CCOCC3)c2c1
  LANA-nucl inh = 0.36; Ab BasE inh = 2.2
> CCOC(=O)c1c(-c2ccc(C)o2)csc1NC(=O)COC(=O)C12CC3CC(CC(O)(C3)C1)C2
  LANA-nucl inh = .; Ab BasE inh = 3.1
> COc1ccc(C2C(C#N)=C(C)NC(C)=C2C#N)c(OC)c1
  LANA-nucl inh = .; Ab BasE inh = -1.2

(list continues)
SMILES | LANA-nucl inh | Ab BasE inh
CC(C)=NNC(=O)Nc1c(-c2c(Cl)cccc2Cl)noc1C | -0.52 | -2.2
CCOC(=O)C1=C(C)NC(SCc2ccc(C(=O)O)cc2)=NC1c1ccc(OCC)cc1 (stereo not given) | . | 1.5
COc1cc2c(cc1OC)CC(C(=O)O)NC2 (stereo not given) | 2.4 | -3.1
COc1cccc(OCC(=O)Nc2ccc(OC(C)=O)cc2C(=O)O)c1 | 0.7 | 2.8
O=C(O)c1ccc(COc2ccccc2/C=C2\NC(=O)N(Cc3ccccc3)C2=O)cc1 | . | 3.4
COc1cc(COc2ccc3c4c(c(=O)oc3c2)CCC4)cc(OC)c1OC | . | 1.0
COc1ccccc1N1CCN(Cc2cc(=O)oc3cc(C)c(Cl)cc23)CC1 | . | -0.1
Fc1c(F)c(C(F)(F)F)c(F)c2c1Oc1cc(Cl)c(Cl)cc1O2 | . | -3.0
CCOCc1nnc(NC(=O)C2CC(=O)N(C(C)(C)C)C2)s1 (stereo not given) | 0.93 | 0.2
Cc1cc(C(=O)COC(=O)c2ccc(O)cc2)c(C)n1CC1CCCO1 (stereo not given) | . | 2.2
O=C1Cc2ccccc2C(=O)N1c1cccc(Cl)c1 | . | 1.0
Cc1cccc(C(=O)Nc2ccccn2)c1 | . | 0.8
c1coc(CNc2ncnc3sc4c(c23)CCCC4)c1 | 0.63 | -4.0
COC(=O)c1c(NC(=S)NCc2ccco2)sc2c1CCC(C)C2 (stereo not given) | 0.39 | 1.5
CC1CCCN(C(=O)c2cccc3c2SCCC3=O)C1 (stereo not given) | -0.28 | -1.4
CCCc1c(C)nc(N)c(C#N)c1-c1ccc(OC)c(OC)c1 | -0.52 | -1.6
O=C(Nn1cnnc1)c1cccc(C(F)(F)F)c1 | 0.49 | .
Fc1c(F)c(Oc2ccccc2)c(F)c(F)c1Oc1ccccc1 | 1.8 | -1.9
O=C1CSC(=O)N1CNc1cc(Cl)ccc1Cl | 0.32 | -1.0
Cn1nc(-c2ccc(S(=O)(=O)NCc3cccs3)s2)cc1C(F)(F)F | . | 2.7
CCOC(=O)c1oc2ccc(Br)cc2c1COC(=O)CCn1c(C)csc1=O | . | -2.3
Cc1cccc(-n2c(C)cc(C=NO)c2C)c1 | 0.64 | 1.7
CC(=O)Nc1ccc(C2Nc3ccccc3C(=O)N2C2CCCCC2)cc1 (stereo not given) | 0.96 | -2.3
CC(=O)Nc1ccc(NC(=O)C(C)OC(=O)c2c3c(nc4ccccc24)CCN(C)C3)cc1 (stereo not given) | . | -3.6
O=C1CCCC(O)=C1C=NCCCn1ccnc1 | -1.2 | 14
O=C(NN1C(=O)c2cccc3cccc(c23)C1=O)c1ccn[nH]1 | 0.15 | 1.1
CC1CN(C)C(C)c2c1oc1ccc(N)cc21 (stereo not given) | -0.16 | -0.7
CC(C)CCNC(=O)C1(C)CCC(=O)N1Cc1ccccc1Cl (stereo not given) | 0.8 | -0.3
CCC(=O)c1ccc(N2CCCCC2)c(F)c1 | -0.013 | 3.3
O=C(CSc1nc2c(c(C(F)(F)F)n1)CCc1ccccc1-2)N1CCCCC1 | 0.55 | 5.8
Cn1c(SCc2cc(F)cc(F)c2)nnc1-c1ccc2nonc2c1 | . | 1.4
Cc1cc(NC(=O)NC(=O)c2ccccc2)no1 | -1.2 | 2.0
CCC(C)NC(=O)c1cccc(N2CCCC2=O)c1 (stereo not given) | 0.6 | 1.2
CCC(=O)Nc1cccc(-c2nc3cccnc3s2)c1 | -0.6 | -0.8
OC1CCCN(CC(O)COc2ccc(-c3ccccc3)cc2)C1 (stereo not given) | . | -1.4
CC(C)c1ccc(NC(=O)CN(C)S(=O)(=O)c2cnc[nH]2)cc1 | -0.23 | -2.0
O=C(CSc1ccc2ccccc2c1)N1CCOCC1 | 2.6 | 0.9
Cc1cc(NC(=O)CCC(=O)Nc2cc(C)on2)no1 | -0.85 | -0.1
CC(C)NC(=O)CSc1nnc(Cc2ccccc2)n1C | 1.3 | -0.3
Cc1cc(C)n(C(CC(=O)O)C(=O)O)n1 (stereo not given) | 0.14 | -0.2
C=CCN=c1scc(-c2ccco2)n1/N=C/c1c[nH]c2ccccc12 | . | -1.3
Cc1cc(C)c(C(N)=O)c(SCC(=O)N2CCc3ccccc3C2)n1 | . | 1.0
CS(=O)(=O)N(CCCCn1c2ccccc2c2ccccc21)Cc1ccco1 | 0.31 | 2.9
Cc1ccn(CCC(=O)NCCN2CCc3ccccc3C2)n1 | -0.76 | -0.6
Cc1nn(-c2ccccc2)c2sc(C(=O)OCCN3c4cccc5cccc(c45)S3(=O)=O)cc12 | . | 2.2
N#Cc1ccc(Cl)cc1NC(=O)CSc1nnc(-c2c[nH]c3ccccc23)n1CC1CCCO1 (stereo not given) | . | 0.4
CN(C)S(=O)(=O)c1ccc(S(=O)(=O)N(Cc2ccccc2F)C2CC2)cc1 | -0.16 | -2.2
COc1ccc(S(N)(=O)=O)cc1C(=O)NCC1CCCO1 (stereo not given) | . | 1.9
CC(C)(C)c1cc(-c2ccccc2)n[nH]1 | 0.045 | -2.1
CC(C)(C)OC(=O)NC1CCN(S(=O)(=O)c2ccc3c(c2)OCCO3)CC1 | -0.62 | 2.2
COc1cc(/C=C2\SC(N(C)c3ccc(O)cc3)=NC2=O)ccc1O | 2.6 | 1.3
COc1ccc(/C=C/C(=O)N(C)c2ccccc2C(=O)O)cc1 | . | 1.0
CCn1cc(-c2ccc3ccccc3n2)c(=S)c2ccccc21 | . | 0.5
O=C(CSc1ncn[nH]1)c1ccc(Cl)cc1 | 2.3 | -4.2
COc1ccc(C(=O)Nc2nc3c(s2)CC(C)CC3)c(OC)c1 (stereo not given) | 0.42 | 2.2
Cc1ccc(CNC(=O)CN2CCC(n3nnc4cc(C)ccc43)CC2)cc1 | 0.083 | 0.4
CN(C)c1ccc(C2=CC=CC(=C3C=CC(=[N+](C)C)C=C3)O2)cc1 | . | 7.9
CCS(=O)(=O)N1CCN(c2cnn(-c3ccccc3)c(=O)c2Cl)CC1 | -0.094 | 0.0
CC1/C=C/C=C/CC/C=C/C=C/C=C/C=C/C(O[C@@H]2O[C@H](C)[C@@H](O)[C@H](N)[C@@H]2O)CC(O)C(C(=O)O)C(O)CC(=O)CC(O)C(O)CCC(O)CC(O)CC(O)CC(=O)OC(C)C(C)C1O (stereo not given in full) | 0.24 | .
COc1cc(CCc2cc(OC)c(C)cc2OC)c(OC)cc1C | . | 1.0

Reprinted from the results shown for reference:
SMILES | LANA-nucl inh | Ab BasE inh
CC1/C=C/C=C/CC/C=C/C=C/C=C/C=C/C(O[C@@H]2O[C@H](C)[C@@H](O)[C@H](N)[C@@H]2O)CC(O)C(C(=O)O)C(O)CC(=O)CC(O)C(O)CCC(O)CC(O)CC(O)CC(=O)OC(C)C(C)C1O (stereo not given in full) | 0.24 | .
COc1cc(CCc2cc(OC)c(C)cc2OC)c(OC)cc1C | . | 1.0

The list continues.
SMILES | LANA-nucl inh | Ab BasE inh
O=C1CCc2cc(S(=O)(=O)N3CCCC3C(=O)N3CCN(c4ccc(Cl)cc4)CC3)ccc2N1 (stereo not given) | -2 | 0.9
CSc1ncc(C(=O)NCc2cccc(C)c2)c(C)n1 | 0.58 | -4.8
Cc1noc(C)c1C(=O)OCC(=O)N1CCCCC1C (stereo not given) | . | -5.2
Cn1c(SCCSc2cccc(C(F)(F)F)c2)nnc1-c1ccco1 | . | -0.3
O=c1c2ccc(-c3n[nH]c(=S)o3)cc2nc2n1CCCCC2 | . | 2.3
CCOC(=O)C(C)Sc1nnc(-c2ccc(F)cc2)o1 (stereo not given) | 0.7 | -1.7
Cc1cc2occ(CC(=O)Nc3ccc(S(=O)(=O)C(F)F)cc3)c2cc1C | . | 0.6
Cc1ccccc1Nc1nc(N)nc(Cn2cc(C(F)(F)F)ccc2=O)n1 | . | 2.3
COc1cccc(N2C(=O)c3cccnc3C2O)c1 (stereo not given) | 0.29 | 0.7
